VDR inh: blocks the human vitamin D receptor; P11473; VDR-SRC2-3 peptide fluorescence polarization, 2 h; Potency, µM, for inactives: max response, negative = inhibition, most hits filed as inhibitors; 0.93% of 400,000 active; AID 504847; active = well fitted inhibition curve with a large enough effect; inconclusive = small, poorly fitted or top-dose-only effect, or another doubt; inactive = no such curve, though single readings can be large or run the other way; note: series mostly up to about 120 µM
Target sequence (P11473 whole entry, looked up): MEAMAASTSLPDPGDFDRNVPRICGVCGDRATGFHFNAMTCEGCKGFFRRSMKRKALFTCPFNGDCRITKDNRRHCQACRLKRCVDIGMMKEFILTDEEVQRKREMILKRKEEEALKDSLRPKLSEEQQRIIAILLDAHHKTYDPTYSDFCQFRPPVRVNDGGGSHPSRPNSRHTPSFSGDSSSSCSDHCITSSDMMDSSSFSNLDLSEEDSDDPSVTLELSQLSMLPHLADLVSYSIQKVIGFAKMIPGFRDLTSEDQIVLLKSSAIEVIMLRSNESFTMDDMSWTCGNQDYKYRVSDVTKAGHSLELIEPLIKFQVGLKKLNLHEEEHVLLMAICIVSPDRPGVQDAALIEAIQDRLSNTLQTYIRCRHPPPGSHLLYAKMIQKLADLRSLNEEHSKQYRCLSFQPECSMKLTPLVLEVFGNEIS
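FP read-out; VDR + SRC2-3 coactivator peptide; 23 nl compound by pintool; 2 h RT incubation; reagents held at 4 deg C, protected from light.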
Starred values were filed as active, the others as inactive; ? = inconclusive; & = joins results of further samples; [ ] = remark or other dose. % is set by controls: 0 for no effect and ±100 for the full control effect; potency is the fitted concentration of half-maximal effect. A portion of the library (hit frequency here may not be typical).

SMILES	VDR inh
COc1ccc(-c2[nH]ncc2CN2CCC(OCc3cccnc3)CC2)c(F)c1	8%
COc1ccc(N(CC(=O)O)S(=O)(=O)c2c(C)n[nH]c2C)cc1	13%
Cc1nc(NS(=O)(=O)c2ccccc2)sc1NC(=O)Nc1ccccc1	-22%
CCN(CC)c1ccc(/C=C/C(=O)c2ccc(Br)cc2)cc1	-30%
COc1ccc(Cl)cc1C(=O)NCCCN1CCOCC1	-13%
Cc1ccc(S(=O)(=O)N2CCN(C(=O)CCN3C(=O)c4ccccc4C3=O)CC2)cc1C	-25%
COC(=O)C(C)Oc1ccc(=O)[nH]n1 (centres undefined)	-9%
Nc1c(-c2ccccc2)cnc2c(-c3ccccc3)cnn12	-18%
COc1cccc(CN2CCN(Cc3ccc(C#CC(C)(C)O)s3)CC2CCO)c1 (centres undefined)	-9%
O=C(COc1ccccc1)NC1CCS(=O)(=O)C1 (centres undefined)	10%
COc1ccc(CNC(=O)C2CCCN(S(=O)(=O)c3c(C)nn(C)c3C)C2)cc1 (centres undefined)	11%
Cc1nc(C)c(-c2ccc(SCC(=O)Nc3ccc(F)cc3F)nn2)s1	-12%
Cc1ccc(-n2[nH]c(C)c(/C=N/NC(=O)c3ccc(O)cc3O)c2=O)cc1	12%
O=C(C1CCCN(Cc2ccc(Cl)cc2)C1)N1CCCCC1 (centres undefined)	-5%
CCOC(=O)c1[nH]c2ccccc2c1NC(=S)Nc1cccc(C)c1C	-14%
Cc1ccc2cc(COC(=O)c3cccc([N+](=O)[O-])c3)c(=O)[nH]c2c1	3%
CCOC(=O)c1cc(-c2ccccc2)n(CCC(=O)NC(C)CC)c1C (centres undefined)	0%
COc1ccc(-n2c(-c3ccc(Br)cc3)c[n+]3c2SC(C)C3)cc1 (centres undefined)	-1%
COc1ccc(CNC(=O)C/C(C)=N/NC(=O)COc2cccc(C)c2)cc1	7%
O=C(NNC(=S)NCC1CCCO1)c1ccc(S(=O)(=O)N2CCOCC2)cc1 (centres undefined)	-11%
Cc1ccc(NC(=O)Cn2ncn3c(cc4ccccc43)c2=O)cc1F	0%&7%
Cc1cc(-c2ccc(S(=O)(=O)N3CCN(c4cccc(C)c4C)CC3)s2)on1	-18%
CCOc1cc(/C=N/NC(=O)COc2ccc(Cl)cc2)ccc1OS(=O)(=O)c1ccccc1	-28%
O=C(Nc1ccc(F)c(Cl)c1)C1CCN(c2ncnc3c2nc2n3CCCCC2)CC1	3%
CCOc1cccc(NC(=O)C(Cc2cccs2)c2nn[nH]n2)c1 (centres undefined)	2%
Cc1oc2c(c(C)cc3oc(=O)c(CC(=O)NCC(=O)NCC(=O)NCC(C)O)c(C)c32)c1C (centres undefined)	26%
Cc1noc(NS(=O)(=O)c2ccc(NC(=O)c3nn(-c4ccc(F)cc4)ccc3=O)cc2)c1C	4%
COc1ccc(C(CNC(=O)c2ccc3c(c2)OCCO3)N(C)C)cc1 (centres undefined)	-3%
COc1cc(/C=C/C(=O)OCC(=O)N2CCCc3ccccc32)ccc1OC(F)F	4%
Cc1cccc(-n2ncc3c2CCCC3NC(=O)CCc2cccnc2)c1C (centres undefined)	23%
CSCC[C@@H](C(=O)NCCCCCCCCCCC(=O)N1CCN(C(=O)OC(C)(C)C)CC1)n1cc(CCO)nn1	-3%
CCOc1ccc(/C=C(/NC(=O)c2ccccc2)C(=O)NCCC(=O)O)cc1	-4%
COc1ccc(C(CNC(=O)COc2ccc(C)c(C)c2)N2CCCCC2)cc1 (centres undefined)	-2%&8%
COc1ccc(CCNC(=O)CCCn2c(=O)c3ccccc3n(CC(=O)Nc3ccc(C)cc3Cl)c2=O)cc1OC	10%
CS(=O)(=O)Nc1ccc(S(=O)(=O)N2CCOCC2)cc1	-9%
C=C1CCN([C@@H](Cc2ccccc2)C(=O)N2CCOCC2)S(=O)(=O)c2ccccc21	-22%
COc1[nH]c(/N=C/c2ccccc2)c(C#N)c1C#N	-11%&-6%
CCOC(=O)c1c(CSc2ccccc2)n(C)c2ccc(O)cc12	-12%
CCO[C@@H]1OC(C(=O)N2CCN(Cc3ccccc3)CC2)=C[C@H](c2ccc(Br)cc2)[C@H]1CCCO	-19%
Cc1csc(SCC(=O)NC(C)c2ccccc2)n1 (centres undefined)	20%
COc1cc(CNc2ccc(C)c(C)c2)cc(OC)c1OC	3%
Cc1ccc(-c2cn3c(n2)sc2cc(C(=O)NC(C)C45CC6CC(CC(C6)C4)C5)ccc23)cc1 (centres undefined)	-2%
c1ccc2c(c1)Nc1cc3ccccc3cc1S2	6%
O=C(N/N=C/c1ccc([N+](=O)[O-])cc1)c1cc(-c2ccc3c(c2)OCO3)n[nH]1	2%
C=CCNC(=S)Nc1sc2c(c1C#N)CCCC2	-22%
Cc1ccc(NC(=O)Cn2c(=O)nc(-c3ccccc3)c3ccccc32)cc1	4%
COc1ccc(S(=O)(=O)N2CCC(C(=O)NCc3cccs3)CC2)cc1	1%
O=C(/C=C/c1ccco1)Nc1ccccc1C(=O)O	-14%

Fetched one by one from above:
SMILES	VDR inh
O=C(/C=C/c1ccco1)Nc1ccccc1C(=O)O	-14%
C=CCNC(=S)Nc1sc2c(c1C#N)CCCC2	-22%
COc1[nH]c(/N=C/c2ccccc2)c(C#N)c1C#N	-11%&-6%
c1ccc2c(c1)Nc1cc3ccccc3cc1S2	6%
CCO[C@@H]1OC(C(=O)N2CCN(Cc3ccccc3)CC2)=C[C@H](c2ccc(Br)cc2)[C@H]1CCCO	-19%
Cc1ccc(NC(=O)Cn2c(=O)nc(-c3ccccc3)c3ccccc32)cc1	4%

Further records
SMILES	VDR inh
COc1ccc(-c2nnc(SCC(=O)N(Cc3ccccc3)C(C)(C)C)o2)cc1OC	-6%
Cc1ccc(NC(=O)c2ccc(OCC3CCCO3)cc2)cc1 (centres undefined)	4%
O=C(/C=C/Nc1ccc([N+](=O)[O-])cc1)c1ccc(Br)cc1	8%
C=CCn1cccc(C(=O)Nc2ccc(C)cc2)c1=O	-19%
CN(C)C(=O)CSc1nnc(CCN)o1	6%
COC(=O)C1=C(C)NC(=O)NC1c1cn(-c2ccccc2)nc1-c1ccc(OC)c(Cl)c1 (centres undefined)	-7%
Cc1nc(N)sc1C(=O)N1N=N1	-3%
O=C1C2CCCCN2C(=O)N1CCCN1CCN(c2cccc(C(F)(F)F)c2)CC1 (centres undefined)	-9%
COc1cc(CN2CCC(C(=O)N3CCCC(C)C3)CC2)cc(OC)c1O (centres undefined)	-5%
O=C(O)c1ccc(N/N=C/c2cc(Br)cs2)cc1	-16%
O=C(OCC(=O)N1N=C(c2ccc(Cl)cc2)CC1c1ccco1)c1cccnc1 (centres undefined)	40µM*
CCOc1ccc(N/C=C/C(=O)c2ccccc2)c([N+](=O)[O-])c1	-1%
NC(=O)c1sc2nc3c(c(-c4ccco4)c2c1N)CCC3	-7%
Cc1ccc(S(=O)(=O)N2CCC(=O)N2)cc1	3%
O=C(NCC1CCCN(C(=O)c2cc(Cl)ccc2F)C1)c1ccc(F)cc1 (centres undefined)	0%
COCC(=O)N(Cc1cc2cc(OC)ccc2[nH]c1=O)c1ccccc1OC	-15%
COc1ccc(CNC(=O)CN(C)S(=O)(=O)c2ccc3nc(C)sc3c2)cc1	1%
COc1ccccc1N1CCN(C(=S)Nc2ccc3nc(N4CCOCC4)cc(C)c3c2)CC1	-4%
CNS(=O)(=O)c1ccc(OC)c(-c2nnc3c4ccccc4c(C)nn23)c1	-6%&4%
O=C(Cc1ccccc1)NC(=S)Nc1cc(C(F)(F)F)ccc1Cl	4%
C=CCn1c(=O)c(C(=O)Nc2ccccc2C(=O)OCC)c(O)c2ccccc21	-1%
CSc1ccccc1NC(=O)COC(=O)CCC(=O)c1ccc(F)cc1	-3%
COc1ccccc1Cc1nc(-c2ccncc2)no1	-4%
CCN(CC)S(=O)(=O)c1ccc(NC(=O)CSc2nnc(-c3ccc(F)cc3)o2)cc1	-4%
O=C(OCc1nc2ccccc2s1)c1ccc([N+](=O)[O-])o1	-25%
O=[N+]([O-])c1ccc2nc(-c3ccncc3)[nH]c2c1	4%
COc1cccc2c1cc1c(=O)n(CC(=O)N3CCN(c4cccc(Cl)c4)CC3)nc(C)n12	-15%
COc1ccc(C2CC3(CC(C)(C)NC(=S)N3)Oc3cc(O)cc(C)c32)cc1 (centres undefined)	?
CC1(c2nnc(-c3cccc(Cl)c3)o2)CC(c2cccc([N+](=O)[O-])c2)=NO1 (centres undefined)	-9%
CC1=CC(C)(C)N2C(=O)C3(N=C(N)NC(Nc4ccccc4)=N3)c3cc(C)cc1c32 (centres undefined)	7%
N#Cc1c(-c2ccccc2)nc(SCC(=O)Nc2ccccc2F)[nH]c1=O	-14%
O=c1c(-c2ccnn2-c2ccc(F)cc2)cnc2n1CCS2	-1%
COCCOC(=O)CSc1ncccc1-c1nc2cc(C)c(C)cc2[nH]1	0%
CC(C)c1c(C(=O)N/N=C/C=C/c2ccccc2)nnn1-c1nonc1N	9%
CCOc1ccccc1N1CCN(C(=O)CSc2ccc3c(c2)OCCO3)CC1	-15%
CC(=O)OCc1c(C(F)(F)F)nn(C)c1Oc1cccc(C(F)(F)F)c1	6%

7 entries from above, reformatted.
VDR inh	SMILES
-25%	O=C(OCc1nc2ccccc2s1)c1ccc([N+](=O)[O-])o1
-15%	CCOc1ccccc1N1CCN(C(=O)CSc2ccc3c(c2)OCCO3)CC1
-15%	COc1cccc2c1cc1c(=O)n(CC(=O)N3CCN(c4cccc(Cl)c4)CC3)nc(C)n12
-1%	O=c1c(-c2ccnn2-c2ccc(F)cc2)cnc2n1CCS2
6%	CC(=O)OCc1c(C(F)(F)F)nn(C)c1Oc1cccc(C(F)(F)F)c1
?	COc1ccc(C2CC3(CC(C)(C)NC(=S)N3)Oc3cc(O)cc(C)c32)cc1 (centres undefined)
4%	O=[N+]([O-])c1ccc2nc(-c3ccncc3)[nH]c2c1

(list continues)
SMILES	VDR inh
Cc1cccc(N(CC(=O)NCCSCc2cccc(Cl)c2)S(=O)(=O)c2ccccc2)c1C	-1%
O=C(NCCC1=CCCCC1)c1cc(S(=O)(=O)N2CCCCC2)ccc1Cl	1%
CC1CN(CC(=O)Nc2cc(S(=O)(=O)N3CCCC3)ccc2Cl)CC(C)O1 (centres undefined)	-2%
CCCCc1ccc(NC(=O)OC)cc1	2%
CC(=O)C1CCC2C3CCC4CC(OC(=O)CCC(=O)O)CCC4(C)C3C(=O)CC12C (centres undefined)	9%
Cc1ccc2oc(C(=O)N(Cc3nccn3C)C(C)C)c(C)c2c1	36%[activator]
CCOC(=O)/C(=N\Nc1ccc(Br)cc1)N1CC(C)OC(C)C1 (centres undefined)	-7%
CCOc1ccc(CCn2c(-c3ccco3)nc3ccccc3c2=O)cc1OCC	-1%
COc1cc(C(=O)Nc2nc(C)cc(C)n2)cc(OC)c1OC	-3%
CC1CCN(C(=O)COC(=O)/C=C/c2ccco2)CC1	?
O=S(=O)(NCCc1csc2nc(-c3ccc(F)cc3)nn12)c1ccc(Br)cc1	4%
COc1cccc(C(=O)Nc2ccc(S(=O)(=O)Nc3nccc(C)n3)cc2)c1	-4%
O=C(NC1CCCCC1)NC1C2CC3CC(C2)CC1C3 (centres undefined)	10%
COC(=O)c1cc2c(=O)c3ccccc3oc2nc1C	-8%
O=C(Cn1cc2c(n1)CCCC2)N1CCc2ccccc21	-17%
O=C1OCc2ccc(NC(=O)c3sccc3Cl)cc21	-1%
COc1ccc(-c2nn(-c3ccccc3)cc2C(=O)n2nnc3ccccc32)cc1	5%
COc1ccc(C(=O)NCc2nc3ccccc3[nH]2)cc1OC	14%
CCC(=O)Nc1ccc(OCc2nc3ccccc3s2)cc1	?
O=C(NCc1ccccc1C(F)(F)F)C1CC(O)CN1C(=O)Nc1ccccc1 (centres undefined)	-14%
CN(C)Cc1ccc(F)cc1Sc1ccc(Cl)cc1Cl	4%
O=C1/C(=C\c2cc(Cl)c(O)c(Cl)c2)SC(=S)N1Cc1ccccc1	3%
Cc1ccc(S(=O)(=O)N2CCOCC2)cc1C(=O)NCc1ccccc1CN1CCCC1	0%
Cn1c(=O)c2c(nc(Sc3nc4ccccc4n3CC(=O)N3CCCCC3)n2C)n(C)c1=O	2%
O=C(O)CN(c1ccccc1)S(=O)(=O)c1cc(C(F)(F)F)cc(C(F)(F)F)c1	-29%
Cc1ccc(-c2csc(C3=C(O)CN(NC(=O)c4ccc([N+](=O)[O-])cc4)C3=N)n2)cc1	-1%
O=C1c2oc3ccccc3c(=O)c2C(c2cccc(O)c2)N1CCCN1CCOCC1 (centres undefined)	-26%
CCCc1nnc(NC(=O)CCC(=O)Nc2ccc(Cl)cc2)s1	-14%
CC(C)CCNC(=O)c1ccc2c(SCC(=O)O)c3c(nc2c1)CCC3	-10%
CCCn1nnnc1NCc1ccc(Cl)cc1Cl	-2%
COc1cccc(N2CCN(S(=O)(=O)c3ccc(-c4cc(C(F)(F)F)on4)s3)CC2)c1	4%
Cc1ccc(C(=O)OCC(=O)NNC(=O)c2cccs2)c(O)c1	-6%
Cc1ccc(S(=O)(=O)n2cccc2C)cc1	-7%
COc1ccc(C(=O)OCC(=O)NC(=O)NC2CCCC2)c(O)c1	-7%
O=C(CN1C(=O)S/C(=C/c2cc(Br)cs2)C1=O)N1CCOCC1	-11%
O=C(Nc1ccccc1)c1ccc(OC(=O)c2ccccc2)cc1	-3%
CCCc1nc(SC2CCCC2)c2c(=O)n(C)c(=O)n(C)c2n1	-11%
O=C(CSc1nnc2c(n1)[nH]c1ccc(F)cc12)OCc1ccccc1	4%
CCCCc1nnc(SCc2ccc(OCC)cc2)n1N	-10%
COc1ccc(/C=N/NC(=O)c2[nH]c3ccc(C)cc3c2-c2ccccc2)c(C(=O)O)c1OC	-13%
O=C(NCC(=O)N(Cc1cccs1)C(C(=O)NC1CCCCC1)c1ccco1)c1cccs1 (centres undefined)	2%
C/C(=N\O)C(=O)Nc1ccccc1	-12%

Compound activity: PubChem, National Center for Advancing Translational Sciences (NCATS)
